HCMV NEC inh = disrupts HCMV UL50-UL53 complex binding; HTRF UL50-UL53 interaction, normalized percent inhibition; inhibition, % (test concentration not listed); 190,000 tested, 0.15% active; AID 1918969;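 active = both replicates at 50% or more, plus weaker picks with an unusually low signal ratio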;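 note: stock transfer was 100 nL into about 20 µL; 0% = negative control wells and 100% = wells with untagged competitor protein; inactives centre near -12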
GIV Gai3 FP = inhibitors of GIV GBA-motif binding to rat Galpha-i3 | Galpha-i3/FITC-GIV peptide fluorescence polarization, 90 min; stronger effect = lower value; scaled: aluminum fluoride 0%, vehicle 100% | percent of control (FP), % (no concentration beside the values) | 210,000 tested, 0.42% active | AID 1224905;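 active = replicate mean at 85% of control or lower, very high polarization wells dropped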;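 note: wells of about 15 µL received 100 nL stock; the first replicate is given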
Target sequence (P08753 whole entry, looked up): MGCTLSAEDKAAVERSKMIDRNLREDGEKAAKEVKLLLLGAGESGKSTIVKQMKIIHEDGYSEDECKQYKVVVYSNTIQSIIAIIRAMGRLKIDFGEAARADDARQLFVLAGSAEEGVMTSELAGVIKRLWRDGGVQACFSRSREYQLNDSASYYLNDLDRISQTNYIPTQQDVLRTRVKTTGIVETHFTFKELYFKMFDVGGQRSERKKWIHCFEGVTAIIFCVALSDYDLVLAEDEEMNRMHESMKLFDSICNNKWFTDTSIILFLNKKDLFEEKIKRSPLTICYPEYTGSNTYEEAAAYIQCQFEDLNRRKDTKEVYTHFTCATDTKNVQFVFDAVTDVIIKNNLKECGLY
Sa growth 42C = blocks Staphylococcus aureus growth; S. aureus RN4220 growth, OD600, 20 h, 42 °C; stronger effect = lower value; relative growth, % (no concentration beside the values); 170,000 tested, 0.53% active; AID 720641;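 active = growth at 42 °C up to 50% and 20 or more points under that at 30 °C, or under 10% at both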;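 note: 300 nL library stock went into each well; scaled to the means of positive and negative controls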
Sa growth 42C second temp = further read-out of Sa growth 42C, marked with its call; relative growth, %; measured here: growth at 30 °C;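 optical density after 20 h as mean of two plates; 100% = untreated growth and lower means inhibition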
Numbers without * were called inactive; . = no result given; & = joins results of further samples.

compound	HCMV NEC inh	Sa growth 42C second temp	GIV Gai3 FP	Sa growth 42C
CCc1ccccc1NS(=O)(=O)c1ccc2[nH]cc(C(=O)N(CC(C)C)CC(C)C)c(=O)c2c1	.	67	106	47
CCOC(=O)c1c(CSc2ccccn2)n(C)c2cc(Br)c(O)cc12	-13	.	105&101	.
CC(C)=CCCC(C)CN1CCN(c2ccc(Cl)cc2)CC1 (stereo unspecified)	-4	96	100	107
CC(=O)N1CCc2c(sc(NC(=O)CSc3ccc(F)cc3)c2-c2nc3ccccc3s2)C1	.	93	108	103
Cn1c(C(=O)NCc2cccc(Cl)c2)cc2oc3ccccc3c21	-28	86	100	110
CN(C(=O)c1oc(=O)c2ccccc2c1-c1ccccc1)c1ccccc1	.	89	95	99
COC(=O)c1cc(-c2cc(OC)c(OC)c(OC)c2)no1	-56	76	109	105
FC(F)(F)c1nc2ccc(Cl)cc2[nH]1	.	2	97	20
CCOc1ccc(-n2c(SCc3nc(-c4ccc(OC)cc4)no3)nnc2-c2ccncc2)cc1	-4	78	103	106
Cc1ccc(CN(C(=O)COc2ccc(Cl)c(C)c2)C2CCS(=O)(=O)C2)o1 (stereo unspecified)	4	89	94	117
CN1CCN(C(CNC(=O)C(=O)Nc2ccccc2)c2ccc3c(c2)OCO3)CC1 (stereo unspecified)	.	88	99	82
COc1ccccc1OCCn1cc(/C=C2\Cc3ccccc3C2=O)c2ccccc21	.	89	291	88
COc1cccc(C(=O)Nc2c(C)n[nH]c2C)c1	-16	94	107	113
CSc1nc2c(c(=O)n1C)C1(CCCC1)Cc1ccccc1-2	-13	.	107	.
Cc1ccc(NC(=O)C2CCCN(c3ncnc4c3nc3n4CCCCC3)C2)cc1F (stereo unspecified)	.	82	103	135
N#CC1=C(N)C(C#N)(C#N)C(c2cccs2)C2CN(C(=O)OCc3ccccc3)CC=C12 (stereo unspecified)	-13	70	118	109
CCOc1ccc(CCl)cc1OCC	-13	94	.	103
CC(=O)Nc1ccc(C2Sc3ccccc3NC3=C2C(=O)c2ccccc23)cc1 (stereo unspecified)	-45	79	113	68
O=C(COc1ccc(C2=Nc3ccccc3NC(c3ccccc3)C2)cc1)Nc1ccccc1 (stereo unspecified)	-10	89	117	105
CSc1nc2ccc(N3C(=O)c4ccccc4C3=O)cc2s1	-5	83	97	89
N=c1n(CCN2CCCCC2)c2ccccc2n1CC(O)c1ccc2c(c1)OCO2 (stereo unspecified)	-10	74	104	115
O=C(Nc1ccccc1Br)Nc1cc(NC(=O)c2ccccc2)ccc1N1CCCC1	-24	.	100	.
O=C(O)CNC(=O)CCN1C(=O)c2ccccc2C1=O	-40	87	104	93
Cc1cc2c([nH]c3ccccc32)c(C)n1	-32	77	100	99
CCCN(CC(=O)Nc1cc(C)on1)CC(=O)Nc1ccccc1C	-10	103	.	93
Cc1csc(-n2[nH]c(C)c(CC(=O)Nc3ccc(F)cc3)c2=O)n1	-14	.	101	.
O=C(CSc1nc2ccccc2[nH]1)Nc1ccc(Cl)c(Cl)c1	3	.	109	.
CCCCN1C(=O)c2oc3ccccc3c2OCC1(C)C(=O)NCc1ccccc1 (stereo unspecified)	-21	.	108	.
O=C(O)CSc1ncc(C(F)(F)F)cc1Cl	-1	.	107	.
Cc1nc(N(C)C2CCCCC2)c2nnn(Cc3ccc(F)cc3)c2n1	-10	91	99	94
O=C(Cn1cc(SCc2ccc(Br)cc2)c2ccccc21)N1CCCCC1	.	95	106	122
O=C(CSc1ncc(S(=O)(=O)c2ccc(Cl)cc2)c(=O)[nH]1)Nc1cccc(C(F)(F)F)c1	-78	81	102	84
CC(C)(C)NC(=O)NC(=O)CN1CCc2ccccc21	24	91	.	90
CCOc1ccccc1NC(=O)CNc1cc(F)ccc1C	-3	95	.	93
CCOc1ccc(-n2cc(C(=O)NCCOC)c3cc(OC)c(OC)cc3c2=O)cc1	5	91	104	98
O=C(/C=C/c1c[nH]c2ccccc12)N1CCCCC1	.	70	96	80
O=S(=O)(c1ccc2c(c1)CCCC2)N1CCCC(c2nc(-c3ccc(Cl)cc3)no2)C1 (stereo unspecified)	-21	.	103	.
O=C(NN=C1CCCCC1)c1cccc(N2CCCC2=O)c1	8	99	102	83
CC1(C)CC(=O)C2=C(C1)Nc1ccccc1N(C(=S)Nc1ccccc1)C2c1ccco1 (stereo unspecified)	-1	107	103	108
CCOc1ccc(S(=O)(=O)N2CCc3ccccc3C2CC(=O)Nc2nnc(C)s2)cc1 (stereo unspecified)	-35	98	.	102
CCN(CC)c1ccc(C(=O)Nn2c(-c3cc(OC)c(OC)c(OC)c3)nc3ccccc3c2=O)cc1	-6	.	114	.
COc1ccc(NCc2nc3ccccc3n2CCOc2ccccc2C)cc1	-1	70	107	94
CC(C)c1ccc(NC(=O)CS(=O)(=O)c2cccc3nsnc23)cc1	.	89	108	104
O=C(Nc1cccnc1)c1cnn(-c2ccccc2)c1-n1cccc1	-21	94	101	84
N#Cc1sc2nnc(-c3ccncc3)n2c1N	29	85	103	96
CC(C)C(CO)NC(=O)Oc1ccccc1 (stereo unspecified)	-23	85	105	105
Cc1ccnn1CCN	-31	86	99	79
COc1cccc([C@H]2N(c3nccs3)C(=O)[C@@H]3CCCN32)c1	-27	.	97	.
COc1ccc2ncc(S(=O)(=O)c3ccccc3)c(N3CCC4(CC3)OCCO4)c2c1	-52	67	99	88
CC1CC(CC(C)C(=O)NC(=S)Nc2ccc(S(N)(=O)=O)cc2)C(=O)O1 (stereo unspecified)	-22	85	107	99
CC(C)n1c(CN2CCOCC2)nc2cc(NC(=O)C3CCCCC3)ccc21	-7	.	97	.
Cc1nnsc1-c1nc2cccc(C)c2c(=O)o1	-6	89	102	98
Cc1cc(C(=O)OCc2cc(=O)oc3cc4c(cc23)CCC4)c(C)o1	0	91	.	100
CCn1c(CN(c2ccc(F)cc2)S(C)(=O)=O)nnc1SCC(=O)N(C)C1CCCCC1	-26	.	103	.
CCC(=O)N(C(=O)CC)c1cc2oc3ccccc3c2cc1OC	-15	82	.	101
COc1ccc(NC(=O)c2ccc3c(c2)CCN3C(C)=O)cc1	-6	.	105	.
Cc1ccc(S(=O)(=O)Nc2nc3n(n2)C(c2ccc(F)cc2)C=C(c2ccccc2)N3)cc1 (stereo unspecified)	-60	87	100	115
CCC1CCCCN1C(=O)COC(=O)/C=C/c1cc(OC)c(OC)c(OC)c1 (stereo unspecified)	-76	88	.	105
CCCc1nc2nc(C)c(NS(=O)(=O)Cc3ccccc3)c(=O)n2[nH]1	-34	89	104	84
O=C1CCCN1CC(O)CN1CCN(c2nc3ccc(Cl)cc3s2)CC1 (stereo unspecified)	.	89	105	113

Next compounds follow.
compound	HCMV NEC inh	Sa growth 42C second temp	GIV Gai3 FP	Sa growth 42C
O=C1C=CC(=NSc2ccccc2)C=C1	-38	18	.	56
CCN1C(=O)c2ccccc2Sc2ccc(NC(=O)NCc3ccccc3)cc21	.	91	106	140
CC1CCCC(NC(=O)CNC(=S)N(Cc2ccc(F)cc2)C2CCCCC2)C1C (stereo unspecified)	.	78	101	71
Cc1ccc(-c2ccc(CNc3ncn[nH]3)o2)cc1Cl	-3	.	103	.
CN(C)S(=O)(=O)c1ccc(SCC(=O)N2CC(=O)Nc3ccccc32)nc1	-18	93	.	80
CCNC(=O)c1cc2sccc2n1Cc1ccccc1	-4	82	98	98
CCOc1ccccc1NC(=O)Cn1c2ncccc2c(=O)n1-c1ccc(C)c(C)c1	.	88	108	90
CCCCC(CC)CNc1ncnc2c1oc1ccccc12 (stereo unspecified)	-23	77	.	73
COCc1cc(=O)[nH]c(/N=C(\N)Nc2ccccc2)n1	.	80	91	93
O=C(CCc1ccccc1)N1N=C(c2ccc(Cl)cc2)CC1(O)C(F)(F)F (stereo unspecified)	-16	.	101	.
COc1ccc(-c2c(C)c3ccc(O)c(CN4CCCCC4)c3oc2=O)cc1OC	.	90	96	95
CCn1ncc(C2=NOC(C(=O)O)C2)c1C (stereo unspecified)	.	89	103	99
Cc1ccc(-c2csc(NC(=O)c3cc(-c4cccs4)nc4ccccc34)n2)o1	-23	.	104	.
c1ccc(C2Nc3ccccc3-n3cccc32)nc1 (stereo unspecified)	-76	50	104	87
NC(=O)c1sc(=S)n2c1[nH]c(=O)c1cc3c(cc12)OCO3	-52	.	104	.
CSc1ccc(CCNC(=O)Cn2nc(C)n3c(cc4sccc43)c2=O)cc1	-22	95	100	129
CCCc1ccc(S(=O)(=O)NCC2CCCN2CC)cc1 (stereo unspecified)	8	91	.	100
CC(=O)N1CCC(=O)Nc2ccccc21	-3	84	97	96
CCc1cc2c(=O)c(-c3nc(C)cs3)c(N)oc2c(CN2CCCCC2)c1O	-26	92	.	97
c1ccc(-n2c3c(c4ccccc42)CCCC3)cc1	-1	102	.	99
CC(=O)Nc1ccc(NC(=O)CN(C)S(=O)(=O)c2ccc3c(c2)CCCC(=O)N3)cc1	.	84	111	95
CC(=O)Nc1ccc2oc(-c3ccccc3)nc2c1	-5	70	101	130
COc1ccccc1NC(=O)CC(C)n1nc(C)cc1C (stereo unspecified)	.	90	96	97
CCOC(=O)N1CCC(NC(=O)c2nccnc2C(=O)Nc2ccc(C)cc2)CC1	-31	90	108	93
Cc1ccc(S(=O)(=O)c2nnn3c2nc(NCc2ccc(F)cc2)c2sccc23)cc1	.	97	108	123
CC(C)CCN1COc2ccc3c4c(oc3c2C1)C(=O)c1ccccc1C4=O	-78	58	.	93
Nc1ccc2c(c1)C(=O)N(CCCCN1C(=O)c3ccc(N)cc3C1=O)C2=O	-27	108	109	100
O=C(Nc1cccc(F)c1)c1cccc2c1C(=O)N(C1CCCCC1)C2	-15	88	100	106
CCn1c(SCC(=O)N=Nc2c(O)[nH]c3c(C)cc(C)cc23)nnc1-c1ccc(C)cc1	-45	95	.	91
S=c1nccc(-c2cc(-c3ccccc3)no2)[nH]1	-111	86	143	91

Four compounds from above, sorted by their value in GIV Gai3 FP, high to low.
Molecule,GIV Gai3 FP
S=c1nccc(-c2cc(-c3ccccc3)no2)[nH]1,143
CCOc1ccccc1NC(=O)Cn1c2ncccc2c(=O)n1-c1ccc(C)c(C)c1,108
CCn1ncc(C2=NOC(C(=O)O)C2)c1C (stereo unspecified),103
O=C(Nc1cccc(F)c1)c1cccc2c1C(=O)N(C1CCCCC1)C2,100

Retrieved by compound from above:
compound	HCMV NEC inh	Sa growth 42C second temp	GIV Gai3 FP	Sa growth 42C
COc1ccc(-c2c(C)c3ccc(O)c(CN4CCCCC4)c3oc2=O)cc1OC	.	90	96	95
Cc1ccc(-c2ccc(CNc3ncn[nH]3)o2)cc1Cl	-3	.	103	.
CCOC(=O)N1CCC(NC(=O)c2nccnc2C(=O)Nc2ccc(C)cc2)CC1	-31	90	108	93

Further structures:
compound	HCMV NEC inh	Sa growth 42C second temp	GIV Gai3 FP	Sa growth 42C
Cc1ccnc(SCC(=O)Nc2ccccc2)n1	-18	107	107	113
O=S(=O)(CCSc1nccc(-c2ccc(Cl)cc2)n1)c1ccccc1	4	93	106	104
COC1CC2C(=O)OC(C(=O)O)C2C(OC)C1OC (stereo unspecified)	-6	85	.	94
COC(=O)c1sccc1-c1ccc(-c2ccn(C(=O)c3cccs3)n2)o1	2	103	102	102
FC(F)(F)c1cccc(-c2noc(-c3ccsc3)n2)c1	2	89	107	101
Nc1c(C(=O)Nc2ccccc2)sc2sc(C(=O)Nc3ccccc3)c(N)c12	-9	83	.	97
CN(S(=O)(=O)c1ccc(F)cc1)S(=O)(=O)c1ccc(Cl)cc1	7	99	107	98
CC1CCc2c(sc3c2C2=NS(=O)(=O)CCN2C=N3)C1 (stereo unspecified)	-15	93	.	90
COc1ccc2cc3cc(C(=O)NCc4cc(Br)ccc4OC)oc3nc2c1	6	90	105	107
O=C(NCc1ccco1)C1CC1(c1ccccc1)c1ccccc1 (stereo unspecified)	-3	112	98	91
COC(=O)c1c(-c2ccccc2)csc1N	.	76	98	84
COC(=O)c1ccc(COC(=O)c2csc3c2CCCC3)o1	5	96	.	128
Cc1cccc(CCNc2ncnc3onc(-c4ccc(Cl)cc4)c23)c1	-34	86	101	113
COc1ccccc1C(=O)Nc1cccc(-c2csc(-c3ccccc3)n2)c1	.	73	100	82
Cc1ccc(NC(=O)c2cc(S(=O)(=O)N3CCc4ccccc43)cn2C)c(Cl)c1	0	104	106	114
O=C(Cn1ccn(-c2ccccc2)c(=O)c1=O)Nc1ccccc1	.	90	95	91

Single records, as listed above. Order of screens: HCMV NEC inh	Sa growth 42C second temp	GIV Gai3 FP	Sa growth 42C
Cc1ccc(NC(=O)c2cc(S(=O)(=O)N3CCc4ccccc43)cn2C)c(Cl)c1 reads 0	104	106	114
COc1ccc2cc3cc(C(=O)NCc4cc(Br)ccc4OC)oc3nc2c1 reads 6	90	105	107
